Mtb hypoxia inh: inhibitors of hypoxia-regulated fluorescent reporter in Mycobacterium tuberculosis. fluorescence inhibition, % (test concentration not listed). M. tuberculosis hypoxia-regulated fluorescent reporter, fluorescence. 300,000 tested, 0.1% active;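 active = 35 to 45% if threefold the growth effect, above 45% if 1.5-fold the growth effect; inactive = the rest, general growth blockers included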;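 note: wells of about 50 µL received 100 nL stock; 0% = vehicle wells and 100% = reference inhibitor wells; whole bacteria with a GFP reporter of the hypoxia response; strong numbers were not always called active; many hits fall short of the cut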
RN4220 kill: S. aureus RN4220 growth inhibition. AID 1259311. OD600, 16 h. inhibition, % (no concentration beside the values). 330,000 tested, 0.33% active;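 active = z-score of -3 or lower and OD600 up to 0.18 on both plates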;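 note: plate controls were untreated cells for no effect and reference antibiotic for full effect; stock transfer was 100 nL into about 80 µL; one replicate is shown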
Sa ugtP lethal: kills S. aureus RN4220 lacking UgtP. S. aureus RN4220 ugtP deletion, OD600 growth, 16 h; some inactives read as strong as hits. growth inhibition, % (test concentration not listed). 330,000 tested, 0.54% active. AID 1259309;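 active = z-score under -3 and OD600 up to 0.15 on both plates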;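 note: plate controls were untreated wells for no effect and antibiotic for full effect; wells of about 80 µL received 100 nL stock; the first replicate is given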
Autofluor counter: flagged as autofluorescent in microsphere protease counterscreen | compound autofluorescence counterscreen, microsphere flow cytometry; hits give high values | fluorescence intensity (concentration not given with the values) | 360,000 tested, 3.1% active;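 active = at least 3 SD above the mean of all compounds, about 16000 in these data; inconclusive = too few beads counted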;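 note: 100 nL of 1 mM stock went into each well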
PrP 5UTR inh: suppresses PrP 5' UTR mRNA reporter expression. cell-based PrP 5' UTR mRNA reporter, plate reader. inhibition, % (no concentration beside the values). 340,000 tested, 0.35% active;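 active = every replicate at 50% or more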;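 note: 0 = median of the neutral control wells; tested in H4 reporter cells; numbers are from one replicate; inactives centre near -14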
BJeLR viability: BJeLR cell viability loss; BJeLR (HRASV12) viability, CellTiter-Glo ATP luminescence, 48 h; reference of the scale not given here; inhibition, % (test concentration not listed); 300,000 tested, 0.17% active;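 active = replicate mean above 50%; inconclusive = above 50% but judged a plate artefact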;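 note: 50 nL library stock added to about 25 µL; numbers are from one replicate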
Mtb hypoxia inh growth: also measured in Mtb hypoxia inh; calls as there; growth inhibition, %; measured here: M. tuberculosis growth (absorbance);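 0% = vehicle and 100% = reference antibiotic; read after six days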
* marks the source's active call; other numbers are inactive results; ? = inconclusive; . = no result given.

SMILES	Mtb hypoxia inh	Mtb hypoxia inh growth	RN4220 kill	Sa ugtP lethal	Autofluor counter	PrP 5UTR inh	BJeLR viability
O=C(Nc1ccccc1C(=O)Nc1ccccn1)c1ccc([N+](=O)[O-])cc1	11	12	-0.2	8	3618	-12	9
CCOC(=O)C1CCCN(C(=O)c2cc(Nc3ccc(OC)cc3)nc3ccccc23)C1 (stereo unspecified)	7	1	-1.6	-3	3766	4	-4
COc1cc(Cl)c(S(=O)(=O)N2CC(C)OC(C)C2)cc1Cl (stereo unspecified)	18	13	-3.3	-37	9016	-9	-1
COCC(C)n1c(SCC(=O)NNC(=O)c2ccc(F)cc2)nc2ccccc2c1=O (stereo unspecified)	8	-10	2.4	2	2064	-11	-9
O=C1CC2(CCN(C(=O)c3ccc(Cl)cc3)CC2)Oc2ccccc21	7	11	4.3	7	?	-16	-1
COc1cc(CC(=O)OCC(=O)NCC(C)C)cc(OC)c1OC	9	-2	4.0	8	4381	-13	1
Cc1ccc(NC2=NCC(=O)N2C2CCCC2)cc1C	2	-5	4.7	2	2097	-10	1
CN(C)S(=O)(=O)c1ccc(F)c(C(=O)Nc2ccccc2C(=O)NC2CC2)c1	-5	6	0.9	3	3134	-14	.
CCCCC1(CC)C(=O)NC(=O)NC1=Nc1ccc(OC)cc1 (stereo unspecified)	4	4	-0.4	-1	21503*	-15	-1
CC(C)c1nc2scc(-c3ccc(Cl)cc3)c2c(=O)n1N	7	-3	21	-2	3541	-47	6
COc1ccc(-c2cn(CCC(=O)O)c(-c3ccncc3)n2)cc1	13	14	5.7	4	3057	-11	.
COc1ccccc1C(=O)NC(=O)Nc1cccc(Cl)c1	15	3	6.1	2	3682	-74	2
COc1ccc(C(CC(=O)O)NC(=O)COc2ccccc2)cc1OC (stereo unspecified)	.	.	0.9	6	2966	-18	16
O=C(CNS(=O)(=O)c1ccc(F)cc1)N1CCCCCC1	0	-1	-0.2	0	4112	-29	8
COc1ccc(-n2c(=O)cc(N3CCCCCC3)[nH]c2=O)cc1	10	4	5.6	0	10048	.	3
CNC(=S)N1N=C(c2ccc(OC)cc2)CC1c1ccc(Cl)cc1Cl (stereo unspecified)	-2	5	-5.3	-24	4770	-10	-1
C=CCNCc1ccc(C(=O)NCCCCCCC)cc1[N+](=O)[O-]	4	17	0.2	-1	3017	6	13
NC(=O)c1ccc(N=Nc2c(-c3ccccc3)[nH]n(-c3ccccc3)c2=O)cc1	3	-1	-5.5	14	.	.	-6
CCCCN1C(=O)CC(SC2CC(=O)N(CCCC)C2=O)C1=O (stereo unspecified)	12	2	5.2	12	3017	-9	.
O=C(Cn1ccccc1=O)Nc1ccc(Cl)c(S(=O)(=O)N2CCCCC2)c1	-3	-6	5.8	0	2841	2	.

Part of the list above in order of molecular weight, smallest number first.
SMILES	Mtb hypoxia inh	Mtb hypoxia inh growth	RN4220 kill	Sa ugtP lethal	Autofluor counter	PrP 5UTR inh	BJeLR viability
O=C(Nc1ccccc1C(=O)Nc1ccccn1)c1ccc([N+](=O)[O-])cc1	11	12	-0.2	8	3618	-12	9
CNC(=S)N1N=C(c2ccc(OC)cc2)CC1c1ccc(Cl)cc1Cl (stereo unspecified)	-2	5	-5.3	-24	4770	-10	-1
COCC(C)n1c(SCC(=O)NNC(=O)c2ccc(F)cc2)nc2ccccc2c1=O (stereo unspecified)	8	-10	2.4	2	2064	-11	-9

(listing goes on)
SMILES	Mtb hypoxia inh	Mtb hypoxia inh growth	RN4220 kill	Sa ugtP lethal	Autofluor counter	PrP 5UTR inh	BJeLR viability
CSc1nnc(C)c(/C=C/Nc2ccc(Cl)cc2)n1	.	.	1.8	-7	2566	-2	7
O=S(=O)(Nc1ccc(-n2cnnn2)cc1)c1cccc(Cl)c1	-1	9	-2.4	-3	?	-6	.
O=C(Cc1ccc(-n2cccc2)cc1)N1CCN(c2ccccc2F)CC1	.	.	-7.0	-4	2329	13	3
CC(C)CC(=O)NNC(=S)NCc1ccco1	18	6	8.7	3	3951	-18	4
CCCn1c(SCC(=O)Nc2cccc(C(=O)OC)c2)nnc1-c1cccnc1	0	4	4.2	1	4821	-11	2
Cc1c(C(=O)NCCC2=CCCCC2)sc2ncnc(N3CCCCC3C)c12 (stereo unspecified)	6	6	-5.3	-11	5239	-14	4
O=C(NCCOC(=O)Nc1cccc2ccccc12)OCc1ccccc1	3	2	4.2	10	3977	-21	.
Cc1ccc(S(=O)(=O)Nc2cccc3c2OC(CN(C)C(=O)Nc2ccc4c(c2)OCO4)C(C)CN(C(C)CO)C3=O)cc1 (stereo unspecified)	14	7	2.4	-1	.	.	.
CCOC(=O)c1c(-c2cccs2)csc1NC(=O)COC(=O)c1c(C)noc1C	0	-3	0.6	54	16276*	6	2
Cc1cc(C(=O)NCc2ccco2)c2cc(F)ccc2n1	5	6	2.9	3	4443	3	.
CC(C)NC(=O)CS(=O)(=O)c1ccccc1	6	3	8.9	0	3569	-14	-2
COc1ccc(-c2sc(Nc3ccccc3)n[n+]2C)c(C)c1C	6	3	2.9	1	3077	-4	1
Cc1cc(Nc2ccc(C(=O)O)cc2)n2nc(C)nc2n1	.	.	2.3	7	5755	-10	-4
Cc1cc(S(=O)(=O)N2CCN(CC(=O)NCCc3cccs3)CC2)ccc1Br	-6	2	4.5	-3	3912	-30	.
CCN(CC)CCNC(=O)C(=O)Nc1ccc(C(=O)OC)cc1	5	14	2.0	6	5741	-17	-5
C#CCOCCOCCOCCNc1nc(N2CCN(C(=O)[C@H](CCC(=O)O)n3cc(C(N)CC(C)C)nn3)CC2)nc(N2CCN(C(=O)[C@H](CCC(=O)O)n3cc(C(N)CC(C)C)nn3)CC2)n1 (stereo partly specified)	.	.	.	.	3237	-19	-4
Fc1c(CSC(=S)N2CCOCC2)cccc1CSC(=S)N1CCOCC1	-1	8	-5.3	6	3902	-18	-3
O=C(CSc1nnc(NC(=O)c2c(F)cccc2F)s1)NC1CCCCC1	-9	5	-6.3	8	3778	-11	2
CCOc1cc(C(=O)N(C)CC(=O)Nc2cccc(F)c2)ccc1OCC(=O)N1CCOCC1	-1	1	4.2	-2	?	-5	3
CN(C)CCN(C(=O)CCS(=O)(=O)c1ccccc1)c1nc2c(F)cccc2s1	3	-3	1.7	2	3794	-11	-2
CC1CCC2C(C1)c1sc(=O)[nH]c1SC2(C)C (stereo unspecified)	3	3	8.5	-14	5384	-20	4
COC(=O)C(C)NC(=O)CNS(=O)(=O)c1ccc(F)cc1 (stereo unspecified)	8	5	2.5	2	3444	5	-1
O=C(C1CC(=O)N(C2CCCCC2)C1)N1CCc2ccccc21 (stereo unspecified)	1	7	3.3	-4	2687	-18	-7
Cc1cc(=O)oc(C)c1C(=O)N1CCN(C(c2ccccc2)c2ccccc2)CC1	8	5	6.4	1	3310	72*	8
COc1ccc(/C=N/n2c(SC)nnc(C(C)(C)C)c2=O)c(OC)c1	.	.	.	.	3848	-20	-5
CCOC(=O)c1sc(=S)n(C)c1N	13	3	-11	-4	2610	-12	-6
COc1ccc(C(=O)O)cc1Nc1cc(C)nc2ncnn12	9	2	-0.8	6	6127	-8	-2
CCCNC(=O)NC(=O)COc1ccc2oc3ccccc3c2c1	.	.	3.4	6	2417	4	-2
COc1ccccc1N1CCN(Cc2nc(N)nc(Nc3ccc(C)cc3)n2)CC1	-3	8	-0.5	-4	3801	-3	5
CN(CCCC(=O)O)S(=O)(=O)c1ccc2c(c1)C(=O)c1cc(S(=O)(=O)N(C)CCCC(=O)O)ccc1-2	5	8	6.5	19	3616	-38	3
Cc1nn2cc(-c3cccc(Cl)c3)cnc2c1Br	-5	-3	6.9	-7	4803	-74	30
COc1nsnc1N1CCOCC1	9	4	-1.6	8	3386	0	-5
COc1cccc(C(=O)N2CCC(n3nccc3NC(=O)C3CCOC3)CC2)c1 (stereo unspecified)	-4	-5	3.7	8	5808	-3	4
COc1cc2c(cc1OC)CC[N+](C)=C2	.	.	-0.7	1	4266	-10	11
O=C(CCC(=O)c1cccs1)Nc1ncccc1O	9	5	5.3	4	5716	-29	-10
COc1cc(C=NNC(=O)Cn2nnc3ccccc32)ccc1O	5	3	4.7	8	.	.	.
C/C(=C\C(=O)c1sccc1Cl)N(C)C	-15	-9	3.4	6	4382	-15	-9
NC(=O)c1cc([N+](=O)[O-])ccc1NCCN1C(=O)c2ccc(C(=O)O)cc2C1=O	2	2	4.8	5	3618	6	-4
COc1ccc(C(=O)CC(=O)C(=O)Nc2ccc([N+](=O)[O-])cc2C)cc1	8	-1	2.7	2	3329	2	-6
CC(=O)N1c2ccc(S(=O)(=O)N(C)CC(=O)Nc3ccccc3C)cc2CC1C (stereo unspecified)	2	0	0.7	-1	4456	-11	-1

Taken from above:
COc1ccc(C(=O)O)cc1Nc1cc(C)nc2ncnn12 in Sa ugtP lethal is listed with 6
Cc1nn2cc(-c3cccc(Cl)c3)cnc2c1Br in Mtb hypoxia inh is listed with -5
Cc1cc(=O)oc(C)c1C(=O)N1CCN(C(c2ccccc2)c2ccccc2)CC1 in Sa ugtP lethal is listed with 1
CC(=O)N1c2ccc(S(=O)(=O)N(C)CC(=O)Nc3ccccc3C)cc2CC1C (stereo unspecified) in Mtb hypoxia inh is listed with 2
C/C(=C\C(=O)c1sccc1Cl)N(C)C in Mtb hypoxia inh is listed with -15
CN(CCCC(=O)O)S(=O)(=O)c1ccc2c(c1)C(=O)c1cc(S(=O)(=O)N(C)CCCC(=O)O)ccc1-2 in BJeLR viability is listed with 3
COC(=O)C(C)NC(=O)CNS(=O)(=O)c1ccc(F)cc1 (stereo unspecified) in Mtb hypoxia inh growth is listed with 5

Next structures
SMILES	Mtb hypoxia inh	Mtb hypoxia inh growth	RN4220 kill	Sa ugtP lethal	Autofluor counter	PrP 5UTR inh	BJeLR viability
c1ccc(SCc2cn3cccnc3n2)nc1	8	2	8.1	14	4055	-56	-2
O=[N+]([O-])c1ccc(S(=O)(=O)Nc2ncccn2)cc1	-13	-25	-4.3	2	2909	10	-7
Cc1ccc(C(=O)Sc2cccccc2=O)cc1	.	.	34	40	2925	57*	104*
Cc1cc(C)cc(-n2nnc(C(=O)NCc3ccco3)c2N)c1	0	6	4.8	0	10011	-14	-5
CSc1nc(N)n(-c2cc(C(F)(F)F)ccn2)n1	9	6	6.4	2	3977	-66	3
COC(=O)Cn1cnc2c(nnn2-c2ccc(OC)cc2)c1=O	-10	0	-2.2	-10	3918	-4	-4
O=S(=O)(c1ccc(F)cc1)c1snnc1-c1ccccc1	15	6	10	1	2219	-61	61*
Cc1nn(C)cc1S(=O)(=O)N1CCCCC1C (stereo unspecified)	6	0	2.6	8	5027	-10	-1
O=S(=O)(Nc1cccnc1)c1cc(Cl)ccc1Cl	-2	8	4.1	-5	5303	-1	-2
NC(=O)C1CCOc2c(I)cc([N+](=O)[O-])cc2C(=O)NC(CO)C(=O)NCC(=O)N1 (stereo unspecified)	13	-3	6.4	-5	.	.	.
CCOc1ccc(CC(=O)NCCc2cnc[nH]2)cc1	3	-10	5.6	5	3749	-15	-3
N#Cc1cc2c(=O)n3ccccc3nc2n(Cc2cccnc2)c1=O	9	-4	7.0	6	5432	-26	-6
CSc1cccc(NC(=O)C2C3C=CC4(O3)C2C(=O)N(CCN2CCOCC2)C4C(=O)NC2CCCCC2)c1 (stereo unspecified)	2	-3	-0.5	6	3846	-12	0
O=C(NC(=S)N1CCCC1)c1ccccc1F	10	3	2.5	0	6972	-2	.
Cc1ccc(-n2c(SCC(=O)N/N=C/c3ccccc3C(=O)O)nnc2-c2ccc(Cl)cc2)cc1	.	.	.	.	4393	-5	1
CCOc1ccc2nc(SCC(=O)Nc3cccc(S(=O)(=O)NC4=NCCCCC4)c3)[nH]c2c1	0	2	3.6	5	4369	-20	8
Cc1cc(=O)oc(C)c1C(=O)NCCN(C)Cc1ccccc1	13	12	1.6	6	4212	-21	-5
O=[N+]([O-])c1ccc2c(c1)C(N1CCOCC1)/C(=C/COc1ccc(Cl)cc1Cl)O2 (stereo unspecified)	.	.	.	.	2465	-12	0
Cc1cc(C)c(C(=O)/C=C/C=C/c2ccccc2)c(=O)[nH]1	9	15	6.7	1	2908	-15	-2
COc1ccc(CNC(=O)COC(=O)c2cncc(Br)c2)cc1	7	-2	0.3	4	5360	-20	4
CS(=O)(=O)N1CCC(C(=O)N2CCC(Cc3ccccc3)CC2)CC1	2	5	2.9	3	7716	-21	1
O=C(CCc1ccccc1)Nc1ccc(N2CCCCC2)cc1	10	3	4.1	-1	5004	-35	0
COc1ccc(NS(=O)(=O)c2ccc(C)c(NC(=O)C3CCCO3)c2)cc1 (stereo unspecified)	23	10	2.4	2	3916	2	.
